Screening results from PubChem BioAssay.
Ecoli growth: E. coli growth inhibition, primary screen, OD600 | OD600 absorbance (test concentration not listed) | AID 1053175, 2014 | Escherichia coli growth, 23 h; stronger effect = lower value | 0.21% of 330,000 active;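 active = OD600 absorbance below the run mean of sample wells minus 3.6 SD, in any replicate, cut at about 0.56 in these data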;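 note: stock transfer was 300 nL into about 60 µL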
Ecoli rRNA inh: reduced GFP signal of wild-type E. coli, primary screen, bacterial rRNA inhibitor project, GFP/RFP fluorescence, OD600, single point | 1.6% of 350,000 active | GFP signal change (wild-type ribosome), % (test concentration not listed) | E. coli WT GFP vs humanized-ribosome RFP mutants, 24 h; stronger effect = lower value; DMSO median 0, no signal -100 | AID 720706, 2013;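 active = significant combined selectivity score with lowered wild-type GFP, culture density cut under 30%, mutant RFP and density less affected; inactive = any of these conditions unmet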; note: one replicate is shown; some compounds called inactive have numbers as strong as hits
HNF4A DNA FP: change in binding of human HNF4A to DNA, primary screen, biochemical, fluorescence polarization, FITC-DNA. Hepatocyte nuclear factor 4-alpha (Homo sapiens), P41235. 1 h. activity change, % at 10 µM. 0.3% of 360,000 active. AID 1224865, 2016; in the data active = activity change above about 30%, passing the limit was not always enough;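 note: controls were the assay level and a saturating level of protein; the project sought stronger binding though the title names inhibitors; some compounds called inactive have numbers as strong as hits; positive values seem to mean higher polarization but the record does not say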
Target sequence (P41235 whole entry, looked up): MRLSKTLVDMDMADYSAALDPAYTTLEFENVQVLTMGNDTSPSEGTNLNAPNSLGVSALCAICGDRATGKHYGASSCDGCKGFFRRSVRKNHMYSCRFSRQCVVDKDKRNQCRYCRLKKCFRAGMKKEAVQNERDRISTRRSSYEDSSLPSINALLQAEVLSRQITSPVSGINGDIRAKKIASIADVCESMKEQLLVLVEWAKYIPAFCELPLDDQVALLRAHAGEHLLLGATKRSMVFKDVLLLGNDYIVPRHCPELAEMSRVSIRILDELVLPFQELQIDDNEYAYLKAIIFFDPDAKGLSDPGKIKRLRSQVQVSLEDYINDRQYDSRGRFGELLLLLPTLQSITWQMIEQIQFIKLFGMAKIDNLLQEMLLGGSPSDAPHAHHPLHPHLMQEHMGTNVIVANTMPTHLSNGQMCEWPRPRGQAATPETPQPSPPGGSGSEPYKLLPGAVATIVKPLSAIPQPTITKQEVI
Vif A3G: inhibitors of Vif binding to APOBEC3G peptide, primary screen, biochemical, TR-FRET, GST-Vif 1-94, biotin-A3G peptide, dose response retest (AID 1117319) | TR-FRET GST-Vif / biotin-A3G peptide binding; higher % means a stronger effect; test concentration not given here; strong numbers were not always called active | 0.57% of 260,000 active | one-dose inhibition, %; IC50 in µM for titrated hits | Virion infectivity factor (Human immunodeficiency virus type 1 group M subtype B (isolate …;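 active = above the screen mean plus three standard deviations and confirmed in dose response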;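 note: Vif residues 1-94 fused to GST binding biotinylated APOBEC3G peptide 110-148; 0% = full assay without inhibitor and 100% = GST in place of GST-Vif; retest series ran down from 100 µM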
FGF22 binding: binders of human FGF22 protein, primary screen, FGF22 synaptogenesis inhibitor project, biophysical, thermal shift, single point. Fibroblast growth factor 22 (Homo sapiens), Q9HCT0. calls only at 9.99 µM. recombinant FGF22 thermal shift, SYPRO orange fluorescence; percent of sucrose octasulfate shift, DMSO zero. 1.5% of 340,000 active. AID 651658, 2012;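 active = melting point raised past a set limit in the mean and every replicate; three in four hits are not shown here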
Target sequence (Q9HCT0 whole entry, looked up): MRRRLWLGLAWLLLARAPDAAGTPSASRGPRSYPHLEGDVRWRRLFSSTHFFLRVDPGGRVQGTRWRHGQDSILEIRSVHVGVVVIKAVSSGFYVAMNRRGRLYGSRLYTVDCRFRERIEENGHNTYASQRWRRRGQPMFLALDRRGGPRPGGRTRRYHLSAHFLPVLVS
AF4-AF9 inh: inhibitors of AF4 peptide binding to AF9, primary screen, biochemical, AlphaScreen, biotin-AF4 peptide, FLAG-AF9, single point; inhibition, % at 10 µM; Protein AF-9 (Homo sapiens), P42568; AID 651704, 2012; 0.47% of 350,000 active;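 active = every replicate reaching a set inhibition limit, whatever the replicate mean, cut at about 25% in these data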;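 note: 0% = plate neutral control median and 100% = total signal loss; the record names both 10 and 1 µM as test concentration; the first replicate is given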
ALR H2O2 inh: inhibitors of human ALR sulfhydryl oxidase, primary screen, biochemical, H2O2 detection, HRP-luminol luminescence, single point. inhibition, % (concentration not given with the values). 3.8% of 290,000 active. purified ALR, DTT oxidation;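 active = mean and each replicate at 75% or more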;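 note: stock transfer was 7.5 nL into about 7.5 µL; 0% = neutral wells and 100% = wells with inactivated enzyme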
Target sequence (P55789 whole entry, looked up): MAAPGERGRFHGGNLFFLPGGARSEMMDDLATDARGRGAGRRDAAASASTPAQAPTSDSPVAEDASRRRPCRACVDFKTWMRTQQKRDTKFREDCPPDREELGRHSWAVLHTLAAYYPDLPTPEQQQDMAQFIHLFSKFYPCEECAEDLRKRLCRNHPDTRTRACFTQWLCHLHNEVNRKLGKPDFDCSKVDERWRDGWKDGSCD
Ecoli rRNA inh OD600: further read-out of Ecoli rRNA inh, marked with its call; OD600 change, %; measured here: OD600 growth;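 optical density of the mix in the first replicate; 0 = DMSO median and -100 = no signal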
Ecoli rRNA inh RFP: further read-out of Ecoli rRNA inh, marked with its call; RFP signal change, %; measured here: RFP humanized mutant strains;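 first replicate; 0 = DMSO median and -100 = no signal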
Active calls of the source: *; i = inactive; . = no result given; & = joins results of further samples. This is a subset (hit frequency here may not be typical).

SMILES | Ecoli growth | Ecoli rRNA inh | Ecoli rRNA inh OD600 | Ecoli rRNA inh RFP | HNF4A DNA FP | Vif A3G | FGF22 binding | AF4-AF9 inh | ALR H2O2 inh
O=C(Nc1ccccn1)c1ccc([N+](=O)[O-])cc1Cl | 0.71 | . | . | . | 0.8 | . | . | . | -9
Cc1ccc(NC(=O)CCS(=O)(=O)c2cccc3nonc23)cc1 | . | -5 | 5 | 1.8 | -0.7 | -3% | i | 0.1 | -12
O=C(N/N=C/c1ccc2c(c1)OCO2)C(=O)Nc1ccc2ccccc2c1 | . | 16 | 20 | -3.2 | . | . | i | -4.2 | 1
O=C(NC1CCCC1)[C@@H]1[C@@H](CO)[C@@H]2Cn3c(ccc(-c4ccccc4)c3=O)[C@@H]2N1CCc1ccccc1 | . | -18 | -45 | 2.4 | . | . | i | 4.2 | .
Cc1c(C(=O)N2CCOCC2)sc(NC(=O)CCl)c1C#N | 0.68 | 10 | 6 | -1.2 | 0.1 | . | i | -0.2 | .
C[C@@H]1CN([C@H](C)CO)C(=O)Cc2cc(NC(=O)NC3CCCCC3)ccc2O[C@H]1CN(C)Cc1ccc(Oc2ccccc2)cc1 | . | 2 | -1 | 0.8 | . | . | i | -1.8 | .
CSc1nc(C(=O)N2CCCC(N3CCN(c4ccccc4C)CC3)C2)cs1 (stereo not drawn) | 0.68 | -25 | -27 | -4.0 | 1.6 | . | i | 2.1 | 18
CCCC#Cc1ccc2c(c1)O[C@@H](CN(C)Cc1ccncc1)[C@@H](C)CN([C@H](C)CO)S2(=O)=O | . | -26 | -64 | 15 | . | . | i | 3.7 | .
CCOC(=O)c1c(C)n(OCc2ccccc2)c2ccc3nonc3c12 | 0.71 | 9 | 14 | 20 | -0.1 | 9% | i | 33* | -19
COc1ccccc1CN(CC(=O)NCc1ccco1)C(=O)CNS(=O)(=O)c1ccc(C)cc1 | 0.76 | . | . | . | -1.7 | 3%&0% | . | . | 3
C[C@@H]1CN([C@@H](C)CO)C(=O)c2cccc(NC(=O)Nc3ccc(C(F)(F)F)cc3)c2O[C@H]1CN(C)C(=O)Nc1ccc(F)cc1 | . | -7 | -7 | -0.9 | . | . | i | 4.5 | .
O=C(NC1CCC1)[C@@H]1[C@@H](CO)[C@@H]2Cn3c(ccc(-c4ccncc4)c3=O)[C@H]1N2CC1CC1 | . | 2 | 5 | 0.9 | . | . | i | -0.3 | .
O=C(NC(=S)Nc1ccccc1Cl)C1CC1 | 0.67 | -12 | -5 | -3.6 | 1.2 | 0% | i | -8.1 | 0
O=C(Nc1ccccc1N1CCN(c2ccccc2)CC1)C1CCCCC1 | 0.7 | 5 | 7 | -0.9 | -0.6 | . | i | 4.1 | -4
COc1ccc(NC(=O)c2c[nH]c(=O)n(-c3ccc(C)c(C)c3)c2=O)c(OC)c1 | . | 5 | 13 | -2.4 | 2.3 | . | i | -5.4 | .
COc1cccc([C@@H]2CC=C(C(=O)O)[C@H](c3ccc(Cl)cc3)N2S(=O)(=O)c2ccc(C)cc2)c1 | . | -2 | -1 | 1.2 | 2.6 | . | i | -2.2 | -6
CCCNC(=O)N1CC2(C1)[C@H](c1ccccc1)[C@@H](CO)N2C(=O)C1CCCCC1 | . | -1 | -1 | -2.2 | . | . | i | -1.6 | .
O=C(c1ccccn1)N1C[C@@H]2[C@H](c3ccccc31)[C@@H](CO)N2C(=O)Cc1ccccc1 | . | -3 | 4 | -4.6 | . | . | i | -0.4 | .
Cc1cccnc1CNC(=O)C1CCC(=O)N(CCc2cccc(F)c2)C1 (stereo not drawn) | 0.71 | 6 | 0 | -2.2 | 2.5 | -6% | i | -4.8 | -4
CCOc1ccc(S(=O)(=O)N2CCC(C(=O)N3CCCCCC3)CC2)cc1C | 0.68 | . | . | . | 3.7 | . | i | -2.0 | -1
CC(=O)N1CCc2cc(S(=O)(=O)CCC(=O)N3CCN(C(=O)c4ccco4)CC3)ccc21 | 0.66 | . | . | . | -1.3 | 18% | . | . | -9
C[C@@H]1CCCCO[C@H](CN(C)C(=O)C2CCCCC2)[C@H](C)CN([C@@H](C)CO)C(=O)c2cc(NC(=O)CCC(F)(F)F)ccc2O1 | . | -4 | 4 | -0.1 | . | . | i | 1.8 | .
FC(F)(F)Oc1ccc(-c2cn3cccnc3n2)cc1 | 0.66 | 16 | 17 | 9.8 | -1.7 | 2% | . | 1.9 | -25
C[C@H]1CN=C(Nc2ccccc2)N1CCCC1CCCC1 | . | -1 | -11 | 0.9 | -0.4 | . | i | 4.3 | 3
O=C(Nc1ccccc1F)N[C@@H]1CC[C@H](CCNC(=O)C2CC2)O[C@H]1CO | . | 2 | 11 | -1.8 | . | . | i | -15 | .
SMILES | Ecoli growth | Ecoli rRNA inh | Ecoli rRNA inh OD600 | Ecoli rRNA inh RFP | HNF4A DNA FP | Vif A3G | FGF22 binding | AF4-AF9 inh | ALR H2O2 inh
CCCc1n[nH]c(=O)c2c1nnn2Cc1ccccc1F | 0.67 | 3 | 4 | 0.8 | -0.7 | 1% | i | 3.2 | -4
COc1ccccc1C(CNc1ccc(S(=O)(=O)N2CCCC2)cc1[N+](=O)[O-])N(C)C (stereo not drawn) | 0.72 | 2 | 3 | -0.3 | -0.4 | -1% | i | 11 | -11
COCCn1c(C)cc(C(=O)COc2ncnc3ccc(Br)cc23)c1C | 0.71 | 11 | -4 | 1.6 | 0.7 | -76% | i | -0.3 | 1
Cc1ccc2nc(C)cc(SCC(=O)N/N=C/c3ccco3)c2c1 | . | 3 | 0 | -0.2 | 0.4 | -2% | i | -1.2 | 55
Cn1c(SCc2nc3ccccc3n2CCO)nc2ccccc21 | 0.7 | . | . | . | 0.6 | 2% | . | . | -10
Clc1ccccc1Nc1nc(-c2ccncc2)nc2ccccc12 | 0.68 | -12 | -1 | -1.4 | 1.9 | -10% | i | 1.1 | -1
COCCNC(=S)N/N=C(\C)c1ccc(-n2ccnc2)cc1 | . | . | . | . | 7.1 | 2% | . | . | 6
COc1ccc2c3c([nH]c2c1)[C@@H](CO)N(C(=O)CC1CC1)CC31CN(Cc2cccnc2)C1 | . | -5 | 2 | -2.3 | . | . | i | 11 | .
O=C1CN(C(=O)COC(=O)c2c(F)cccc2Cl)c2ccccc2N1 | 0.68 | -1 | -3 | -0.2 | 0.9 | . | i | 2.1 | .
NC(=O)c1ccccc1NC(=O)COC(=O)CSCc1cccc(Cl)c1 | 0.66 | -1 | 5 | 1.8 | -1.9 | . | i | -8.6 | -10
O=C(Cc1c(Cl)cccc1Cl)Nc1ccncc1 | 0.69 | -10 | -6 | -2.1 | 1.1 | . | i | 2.7 | -9
COc1ccc(C2NC(=O)c3sc4nc(C)c(C(C)=O)c(-c5ccc(Cl)cc5)c4c3N2)cc1 (stereo not drawn) | 0.77 | . | . | . | -1.3 | -5% | . | . | -4
CCOC(=O)c1c(S(=O)(=O)NCC(=O)N2CCN(c3ccccc3)CC2)c(C)n(C)c1C | 0.68 | -5 | -9 | -1.7 | -0.4 | -4% | i | 0.1 | 14
CC(C)(C)OC(=O)n1cc(C(=O)c2ccccc2O)cn1 | 0.68 | 5 | 16 | -1.3 | 2.4 | . | i | -1.4 | -1
CCOC(=O)N1CCC(NC(=O)CN2C(=O)COc3ccc(C(C)(C)C)cc32)CC1 | 0.63 | 16 | 11 | 1.0 | 2.1 | -4% | i | 6.8 | -1
O=C(CC1C(=O)NCCN1Cc1cccc(F)c1F)NC1CCCCCC1 (stereo not drawn) | 0.7 | 1 | -2 | 0.8 | 3.5 | 7% | i | 2.4 | 1
COC(=O)[C@H]1C[C@@H]1[C@H](NC(=O)c1ccccc1)c1ccccc1 | . | -4 | 6 | 0.0 | 1.5 | 18% | i | -2.5 | -6
CCC(Oc1ccccc1OC)C(=O)Nc1ccc2c(c1)OCO2 (stereo not drawn) | 0.7 | -11 | -13 | 1.4 | 4.9 | . | i | 2.7 | -8
C[C@@H]1CN([C@H](C)CO)C(=O)c2cc(NS(=O)(=O)c3ccc(Cl)cc3)ccc2O[C@@H](C)CCCCO[C@@H]1CN(C)S(=O)(=O)c1cccs1 | . | 3 | 9 | 0.1 | . | . | i | -0.8 | .
O=C(N[C@H]1CC[C@@H](CCNS(=O)(=O)c2ccc(Cl)cc2)O[C@@H]1CO)c1cccnc1 | . | 1 | 5 | 0.9 | . | . | i | -1.6 | .
COc1cccc(C2CC(=O)Nc3cc(OC)c(OC)cc32)c1 (stereo not drawn) | 0.65 | 7 | 5 | 1.4 | 5.5 | . | i | -13 | -10
CC(C)NC(=O)Nc1ccc2c(c1)CC(=O)N([C@@H](C)CO)C[C@H](C)[C@H](CN(C)CC1CCCCC1)O2 | . | 2 | -2 | -0.4 | . | . | i | 1.8 | .
CCOC(=O)c1cccc(NC(=O)c2cccs2)c1 | 0.76 | . | . | . | 0.2 | 2% | . | . | 1
CCCCNC1CCS(=O)(=O)C1 (stereo not drawn) | 0.67 | . | . | . | -1.8 | -13% | . | . | -2
CN(c1ccccc1)S(=O)(=O)c1ccc2c(c1)oc(=O)n2C | . | 2 | 12 | 2.5 | -0.5 | -5% | i | 4.1 | -3
SMILES | Ecoli growth | Ecoli rRNA inh | Ecoli rRNA inh OD600 | Ecoli rRNA inh RFP | HNF4A DNA FP | Vif A3G | FGF22 binding | AF4-AF9 inh | ALR H2O2 inh
COC(=O)c1ccccc1NC(=O)NC1CCN(Cc2ccccc2)CC1 | 0.66 | . | . | . | -2.6 | -5% | . | . | -7
Cc1ccc(C(=O)O)cc1NCc1ccncc1 | 0.63 | 4 | 4 | -0.7 | 4.8 | . | i | -1.3 | -9
O=C(NNc1ccc(F)cc1F)C1CCC1 | 0.66 | 9 | 10 | -2.5 | 3.4 | -5% | i | 0.9 | 10
CC(C)=CCC/C(C)=C/CNC(=O)CC1C[C@H](C(=O)N(C(C)C)C(C)C)[C@@]2(C)c3[nH]c4ccccc4c3CCN2C1=O (stereo partly drawn) | 0.72 | 13 | 6 | -0.4 | 1.2 | 2% | i | 2.5 | .
COc1ccc(CNC(=O)C[C@@H]2C=C[C@H](NC(=O)CN(C)C)[C@@H](CO)O2)cc1 | . | 5 | 5 | -1.0 | . | . | i | -0.2 | .
CCOC(=O)CNC(=S)N(Cc1ccccc1)Cc1cccnc1 | 0.69 | -6 | 2 | 1.9 | 2.3 | 1% | i | -12 | -10
O=C(NCc1ccc(Cl)cc1)c1cnccn1 | 0.71 | . | . | . | -1.3 | -7% | . | . | -3
COc1ccc(-c2ccnc(SCC(=O)c3ccc(Cl)cc3)n2)cc1 | 0.7 | . | . | . | 2.7 | . | i | -0.1 | -7
CCN(CC)CCn1c2ccccc2c2nc(C)sc21 | 0.71 | . | . | . | 4.0 | 0% | . | . | 3
FC(F)(F)c1cccc(N2CCN(CC3CC=CCC3)CC2)c1 (stereo not drawn) | 0.74 | . | . | . | -0.1 | 8% | . | . | -8

Single records (already shown):
`FC(F)(F)c1cccc(N2CCN(CC3CC=CCC3)CC2)c1` (stereo not drawn) is listed as Ecoli growth = 0.74; Ecoli rRNA inh = .; Ecoli rRNA inh OD600 = .; Ecoli rRNA inh RFP = .; HNF4A DNA FP = -0.1; Vif A3G = 8%; FGF22 binding = .; AF4-AF9 inh = .; ALR H2O2 inh = -8
`COc1ccc(CNC(=O)C[C@@H]2C=C[C@H](NC(=O)CN(C)C)[C@@H](CO)O2)cc1` is listed as Ecoli growth = .; Ecoli rRNA inh = 5; Ecoli rRNA inh OD600 = 5; Ecoli rRNA inh RFP = -1.0; HNF4A DNA FP = .; Vif A3G = .; FGF22 binding = i; AF4-AF9 inh = -0.2; ALR H2O2 inh = .
